Screening results deposited in PubChem by Broad Institute.
DUX4 inh: inhibitors of DUX4-driven ZSCAN4 reporter expression, primary screen, 293T cells, Gaussia and Italica luciferase | 293T-iDUX4 ZSCAN4-Gaussia luciferase reporter, 24 h; hits give low values | activity change, negative = inhibition, % (test concentration not listed) | hit rate 0.8% among 37,000;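 active = -10% or lower and over 25 points stronger than a control reporter; inconclusive = -10% or lower with a smaller gap; inactive = above -10%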;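 note: 0% = median of neutral control wells and -100% = median of positive control wells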
DUX4 inh difference: also measured in DUX4 inh; calls as there; Gaussia minus Italica difference, %; measured here: selective DUX4 reporter inhibition;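 worked out from the two reporters; negative = selective loss of the DUX4 reporter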
DUX4 inh control: second read-out of DUX4 inh, no call of its own (marks repeat the call); activity change, negative = inhibition, %; measured here: Italica tet-on control reporter;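 0 = neutral control and -100 = positive control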
An asterisk follows results filed as active; ? = inconclusive; / = no result given. A portion of the library, so the mix of outcomes need not match the whole.

Values run as follows: DUX4 inh | DUX4 inh difference | DUX4 inh control
CCNC(=O)C[C@H]1CC[C@H]2[C@@H](COC[C@H](O)CN2C(=O)Nc2cccc(OC)c2)O1
 : 2.8 | 6.2 | -3.4
C[C@H](NC(=O)C[C@@H]1CC[C@@H]2[C@H](COC[C@H](O)CN2Cc2ccc(C(F)(F)F)cc2)O1)c1ccccc1
 : -7.9 | -8.5 | 0.6
CN(C)Cc1cn(CC[C@@H]2CC[C@@H](NC(=O)Nc3ccc4c(c3)OCO4)[C@H](CO)O2)nn1
 : -1.4 | -1.7 | 0.2
CCC(=O)N[C@H]1CC[C@H](CC(=O)NCc2ccccc2F)O[C@H]1CO
 : 7.2 | 2.2 | 5.0
CN(C)C(=O)C[C@H]1C[C@@H]2c3cc(NC(=O)c4cccnc4)ccc3O[C@@H]2[C@@H](CO)O1
 : -3.8 | -1.6 | -2.2
N#C[C@@H]1[C@H](c2ccccc2-c2ccc(F)cc2)[C@H](CO)N1C(=O)NC1CCCCC1
 : ? | / | /
CO[C@H]1CC[C@H]2CCN(C)C(=O)[C@@H](C)N(C)C(=O)c3cccc(C#N)c3OC[C@H]1O2
 : -1.4 | -1.8 | 0.4
O=C(C[C@@H]1CC[C@@H]2[C@H](COC[C@@H](O)CN2S(=O)(=O)c2cccc(Cl)c2)O1)Nc1ccc(-c2ccccc2)cc1
 : ? | / | /
CN1[C@@H]2Cn3c(ccc(-c4ccc(F)cc4)c3=O)[C@H]1[C@@H](C(=O)NC1CCCC1)[C@@H]2CO
 : -2.6 | -4.8 | 2.2
O=S(=O)(c1ccc(F)cc1)N1CC[C@@H]2[C@@H](CO)Nc3ccc(C#Cc4cccc(F)c4)cc3[C@@H]21
 : 1.0 | 3.1 | -2.1
Cc1ccccc1-c1ccc([C@H]2[C@H]3CN(C(=O)NC4CCCC4)CCCCN3[C@H]2CO)cc1
 : -8.8 | 5.2 | -13.9
O=C(C[C@H]1CC[C@H]2[C@@H](COC[C@@H](O)CN2C(=O)Nc2cc(Cl)cc(Cl)c2)O1)NCC1CC1
 : -6.8 | -3.8 | -3.0
COc1ccc2c3c([nH]c2c1)[C@H](CO)N(Cc1ccccc1)CC31CN(C(=O)Nc2cccc(F)c2)C1
 : ? | / | /
C[C@H]1CCCCO[C@@H](CN(C)C(=O)c2ccncc2)[C@@H](C)CN([C@@H](C)CO)C(=O)c2cc(NC(=O)NC3CCCCC3)ccc2O1
 : -3.2 | -6.7 | 3.4
N#C[C@H]1[C@@H](c2ccccc2C2=CCCCC2)[C@@H](CO)N1S(=O)(=O)c1cccc(F)c1
 : ? | / | /
O=C(C[C@H]1C=C[C@H](NC(=O)c2ccc3c(c2)OCO3)[C@H](CO)O1)NC1Cc2ccccc2C1
 : ? | / | /
CC(C)NC(=O)N1CCCCN2[C@H](C1)[C@H](c1ccc(C#Cc3ccccc3)cc1)[C@@H]2CO
 : 3.2 | 15.4 | -12.1
CCCN(C)C[C@H]1OCCCC[C@H](C)Oc2ccc(NC(=O)Nc3ccc4c(c3)OCO4)cc2C(=O)N([C@@H](C)CO)C[C@@H]1C
 : -0.8 | -3.7 | 2.9
C[C@H](CO)N1C[C@H](C)[C@H](CN(C)C(=O)Nc2cccc(Cl)c2Cl)OCc2ccccc2-c2ccccc2C1=O
 : -4.1 | 9.7 | -13.7
CO[C@@H]1CN(C)C(=O)c2cc(NC(=O)c3ccc4c(c3)OCO4)ccc2OC[C@@H](C)N(CC2CC2)C[C@@H]1C
 : -7.5 | -6.0 | -1.5

Whole records from above. Order of values: DUX4 inh	DUX4 inh difference	DUX4 inh control
Listed for N#C[C@@H]1[C@H](c2ccccc2-c2ccc(F)cc2)[C@H](CO)N1C(=O)NC1CCCCC1 : ?	/	/
Listed for CCCN(C)C[C@H]1OCCCC[C@H](C)Oc2ccc(NC(=O)Nc3ccc4c(c3)OCO4)cc2C(=O)N([C@@H](C)CO)C[C@@H]1C : -0.8	-3.7	2.9
Listed for O=C(C[C@@H]1CC[C@@H]2[C@H](COC[C@@H](O)CN2S(=O)(=O)c2cccc(Cl)c2)O1)Nc1ccc(-c2ccccc2)cc1 : ?	/	/
Listed for O=S(=O)(c1ccc(F)cc1)N1CC[C@@H]2[C@@H](CO)Nc3ccc(C#Cc4cccc(F)c4)cc3[C@@H]21 : 1.0	3.1	-2.1

(continued)
Values run as follows: DUX4 inh | DUX4 inh difference | DUX4 inh control
CO[C@H]1CN(C)C(=O)c2cc(NC(=O)Nc3cc(F)ccc3F)ccc2OC[C@@H](C)NC[C@H]1C
 : 0.5 | -2.0 | 2.5
N#C[C@H]1[C@H](c2ccccc2C2=CCCCC2)[C@H](CO)N1C(=O)C1CCOCC1
 : 8.0 | 11.4 | -3.4
COc1ccc2c3c(n(C)c2c1)[C@H](CO)N(S(C)(=O)=O)CC31CCN(Cc2cccnc2)CC1
 : 12.0 | -6.1 | 18.1
O=C(C[C@@H]1CC[C@H](NC(=O)c2cccnc2)[C@H](CO)O1)NCc1ccc(Cl)c(Cl)c1
 : -1.9 | 0.8 | -2.8
CN1C(=O)c2cc(NC(=O)c3cccc(F)c3)ccc2OC[C@H]2O[C@@H](CC(=O)Nc3ccccc3)CC[C@H]21
 : 1.3 | 1.7 | -0.5
C[C@H](CO)N1C[C@H](C)[C@H](CN(C)C(=O)Nc2ccc(C(F)(F)F)cc2)Oc2ccc(NS(=O)(=O)c3ccc(Cl)cc3)cc2CC1=O
 : -0.9 | -4.0 | 3.1
O=C(NC1CCCC1)N1CC(=O)N2[C@H](CO)[C@@H](c3ccc(/C=C/c4ccccc4)cc3)[C@H]2C1
 : 7.2 | 9.7 | -2.5
COc1ccc2c3c([nH]c2c1)[C@@H](CO)N(C(=O)CN1CCOCC1)CC31CN(Cc2ccccc2)C1
 : 8.7 | -11.4 | 20.1
CO[C@H]1CC[C@@H]2CCN(C)C(=O)[C@@H](C)N(C)C(=O)c3cc(C#N)ccc3OC[C@H]1O2
 : -0.4 | -0.9 | 0.5
CN1C(=O)c2cc(NC(=O)C3CCOCC3)ccc2OC[C@H]2O[C@H](CC(=O)NCc3ccccc3F)CC[C@H]21
 : -0.4 | -1.6 | 1.1
N#C[C@@H]1[C@H](c2ccc(-c3cccnc3)cc2)[C@H](CO)N1C(=O)C1CCOCC1
 : -1.1 | -1.9 | 0.8
COCC(=O)N1[C@@H]2CN(C(=O)Nc3cc(F)ccc3F)c3ccccc3[C@@H]2[C@@H]1CO
 : -2.5 | -6.4 | 3.9
Cc1noc(C)c1S(=O)(=O)Nc1ccc2c(c1)C(=O)N([C@@H](C)CO)C[C@H](C)[C@H](CN(C)C(=O)NC1CCCCC1)O2
 : -1.0 | 0.7 | -1.7
COc1cccc(S(=O)(=O)Nc2ccc3c(c2)C(=O)N(C)[C@@H]2CC[C@H](CC(=O)O)O[C@H]2CO3)c1
 : 0.7 | 3.6 | -2.9
O=C(CC1CC1)N1CC2(C1)[C@@H](c1ccccc1)[C@@H](CO)N2S(=O)(=O)Cc1ccccc1
 : -7.9 | -10.1 | 2.3
N#Cc1cccc(-c2ccc([C@H]3[C@H]4CN(S(=O)(=O)c5ccccc5)CCCCN4[C@H]3CO)cc2)c1
 : 2.6 | 1.5 | 1.1
O=C(Nc1cc(F)ccc1F)N[C@@H]1CC[C@@H](CCn2cc(C3CCCCC3)nn2)O[C@H]1CO
 : 1.0 | 4.5 | -3.5
CN(C)Cc1cn(CC[C@H]2CC[C@@H](NC(=O)Nc3ccc4c(c3)OCO4)[C@@H](CO)O2)nn1
 : -3.6 | -1.2 | -2.4
O=C(C[C@H]1CC[C@H]2[C@@H](COC[C@@H](O)CN2Cc2cccc(-c3ccncc3)c2)O1)N1CCOCC1
 : 0.4 | 3.8 | -3.3
C[C@@H](NC(=O)[C@H]1N[C@H]2c3ccc(C4=CCCCC4)c(=O)n3C[C@H]2[C@@H]1CO)c1ccccc1
 : 6.4 | -0.5 | 6.9

Remaining list, next part.
Values run as follows: DUX4 inh | DUX4 inh difference | DUX4 inh control
C[C@H](CO)N1C[C@H](C)[C@H](CN(C)CC2CCCCC2)Oc2c(NC(=O)c3ccncc3)cccc2C1=O
 : 0.6 | 0.3 | 0.3
O=C(c1ccccc1F)N1C[C@H]2[C@@H](c3ccccc31)[C@H](CO)N2C(=O)Nc1ccccc1
 : 3.9 | 3.3 | 0.6
CN1C(=O)c2cc(NC(=O)Nc3ccccc3F)ccc2OC[C@H]2O[C@H](CC(=O)NCCc3ccncc3)CC[C@H]21
 : -2.1 | -3.8 | 1.6
Cc1noc(C)c1NC(=O)Nc1ccc2c(c1)C(=O)N([C@H](C)CO)C[C@@H](C)[C@H](CN(C)S(=O)(=O)c1cccs1)OCCCC[C@@H](C)O2
 : 4.4 | 0.2 | 4.2
CCOC(=O)c1cc2c(c(-c3cccc(C#CCN(C)C)c3)n1)[C@@H](CCO)N(S(=O)C(C)(C)C)C2 (some centres not stated)
 : -0.1 | 4.3 | -4.4
CCNC(=O)C[C@H]1CC[C@H]2[C@@H](COC[C@@H](O)CN2Cc2ccncc2)O1
 : 11.6 | 0.3 | 11.3
C[C@H]1CN([C@@H](C)CO)C(=O)Cc2cc(NC(=O)NC3CCCCC3)ccc2O[C@H]1CN(C)Cc1ccc(Oc2ccccc2)cc1
 : -1.4 | -1.0 | -0.4
Cc1ccccc1S(=O)(=O)N1C[C@@H](O)COC[C@H]2O[C@H](CC(=O)N3CCOCC3)CC[C@@H]21
 : 9.9 | 2.6 | 7.3
CCNC(=O)Nc1ccc2c(c1)C(=O)N(C)[C@H]1CC[C@@H](CC(=O)NCc3ccccc3F)O[C@H]1CO2
 : -1.9 | -3.7 | 1.8
COc1ccc2c3c(n(C)c2c1)[C@H](CO)N(C(=O)c1cccnc1)CC31CCN(C)CC1
 : -1.9 | -5.1 | 3.2
O=C(Nc1ccc2c(c1)[C@H]1C[C@H](CC(=O)N3CCc4ccccc4C3)O[C@H](CO)[C@H]1O2)c1ccc2c(c1)OCO2
 : ? | / | /
O=C(C[C@@H]1CC[C@@H]2[C@H](COC[C@H](O)CN2C(=O)Nc2cccc(F)c2)O1)NCCCN1CCOCC1
 : 7.3 | -1.8 | 9.1
C[C@@H]1CN([C@H](C)CO)C(=O)CCCn2cc(nn2)CO[C@H]1CN(C)S(=O)(=O)c1ccc(-n2cccn2)cc1
 : 6.0 | 4.7 | 1.3
CCCC#Cc1cnc2c(c1)C(=O)N([C@H](C)CO)C[C@H](C)[C@@H](CN(C)C(=O)Nc1cc(F)ccc1F)O2
 : -7.6 | -4.1 | -3.5
Cc1ccccc1-c1ccc([C@@H]2[C@H](CO)N3CCCCN(C(=O)Nc4cccc(F)c4)C[C@@H]23)cc1
 : ? | / | /
COCCNC(=O)C[C@H]1C[C@@H]2c3cc(NC(=O)Nc4ccccc4F)ccc3O[C@@H]2[C@@H](CO)O1
 : 8.1 | 4.7 | 3.5
O=C(CN1CCOCC1)N[C@@H]1CC[C@H](CCn2cc(C3CC3)nn2)O[C@H]1CO
 : -1.7 | -3.8 | 2.1
CC(C)NC(=O)N(C)C[C@H]1Oc2ccc(NC(=O)c3ccncc3)cc2C(=O)N([C@@H](C)CO)C[C@H]1C
 : -1.7 | -2.8 | 1.1
CCCN(C)C[C@H]1OCCCC[C@@H](C)Oc2ccc(NS(=O)(=O)c3ccc(C)cc3)cc2C(=O)N([C@@H](C)CO)C[C@H]1C
 : 0.7 | -2.7 | 3.5
CO[C@@H]1CN(C)C(=O)c2cc(NC(=O)Nc3cc(F)ccc3F)ccc2OC[C@@H](C)NC[C@H]1C
 : 1.1 | 1.7 | -0.6

Following part
Values run as follows: DUX4 inh | DUX4 inh difference | DUX4 inh control
COc1ccc(S(=O)(=O)N[C@@H]2CC[C@H](CCn3cc(-c4ccccc4F)nn3)O[C@@H]2CO)cc1
 : 3.6 | -0.9 | 4.5
CC(=O)N1CC(=O)N2[C@H](CO)[C@H](c3ccc(C#CC(C)C)cc3)[C@@H]2C1
 : 6.8 | -2.8 | 9.7
CN1C(=O)c2cc(NS(=O)(=O)c3ccc(Cl)cc3)ccc2OC[C@H]2O[C@H](CC(=O)O)CC[C@H]21
 : -2.5 | -2.0 | -0.5
Cc1noc(C)c1NC(=O)N[C@H]1C=C[C@@H](CC(=O)Nc2ccc(-c3ccccc3)cc2)O[C@@H]1CO
 : 3.8 | 3.7 | 0.1
Cc1cccc(CN(C)C[C@H]2OCc3cnnn3CCCC(=O)N([C@@H](C)CO)C[C@H]2C)c1
 : -4.4 | -4.0 | -0.4
C[C@H](CO)N1C[C@H](C)[C@@H](CN(C)C(=O)Nc2cccc3ccccc23)OCCCC[C@H](C)Oc2ccc(NS(=O)(=O)c3cn(C)cn3)cc2C1=O
 : -4.1 | -1.4 | -2.7
O=C(NCc1ccccn1)[C@@H]1[C@@H](CO)[C@@H]2Cn3c(cccc3=O)[C@H]1N2CC1CCCCC1
 : -0.7 | -3.8 | 3.1
CNC[C@@H]1OCCCC[C@@H](C)Oc2ccc(NC(=O)CCC(F)(F)F)cc2C(=O)N([C@@H](C)CO)C[C@H]1C
 : 1.0 | 0.7 | 0.3
OC[C@@H]1Nc2ccc(-c3ccc(F)cc3)cc2[C@H]2[C@@H]1CCN2Cc1ccc(F)cc1
 : -3.2 | -17.0 | 13.8
CCCN1[C@@H]2c3ccc(-c4ccccc4)c(=O)n3C[C@@H]2[C@@H](CO)[C@@H]1C(=O)N(C)C
 : -4.7 | -5.4 | 0.7
CNC(=O)C[C@@H]1CC[C@H]2[C@@H](COC[C@@H](O)CN2Cc2ccncc2)O1
 : 0.9 | 2.0 | -1.1
Cc1ccc(-c2ccc3c(c2)O[C@H](CN(C)Cc2ccccn2)[C@@H](C)CN([C@H](C)CO)S3(=O)=O)cc1
 : -0.2 | -1.7 | 1.5
CNC(=O)C[C@@H]1CC[C@H]2[C@H](COc3ccc(NC(=O)c4ccccc4F)cc3C(=O)N2C)O1
 : -5.8 | -5.8 | 0.0
